HCMV NEC inh: inhibitors of HCMV UL50-UL53 interaction, biochemical, HTRF. normalized percent inhibition. inhibition, % (test concentration not listed). 0.15% of 190,000 active. HCMV UL50-UL53 nuclear egress complex (human cytomegalovirus);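 active = both replicates at 50% or more, plus weaker picks with an unusually low signal ratio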;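 note: stock transfer was 100 nL into about 20 µL; 0% = negative control wells and 100% = wells with untagged competitor protein; inactives centre near -12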
Sa growth 42C: S. aureus growth inhibition at 42 and 30 °C, primary screen, LtaS inhibitor project, RN4220, two temperatures; OD600, 20 h, 42 °C; active compounds read low; relative growth, % (no concentration beside the values); 0.53% of 170,000 active; AID 720641, 2013;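 active = growth at 42 °C up to 50% and 20 or more points under that at 30 °C, or under 10% at both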;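 note: 300 nL library stock went into each well; scaled to the means of positive and negative controls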
GIV Gai3 FP: inhibitors of GIV peptide binding to Galpha-i3, primary screen, biochemical, fluorescence polarization, FITC-GIV GBA peptide, rat Galphai3. Guanine nucleotide-binding protein G(i) subunit alpha-3 (Rattus norvegicus), P08753. 90 min; active compounds read low; scaled: aluminum fluoride 0%, vehicle 100%. percent of control (FP), % (no concentration beside the values). 0.42% of 210,000 active. AID 1224905, 2016;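 active = replicate mean at 85% of control or lower, very high polarization wells dropped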;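 note: wells of about 15 µL received 100 nL stock; the first replicate is given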
Target sequence (P08753 whole entry, looked up): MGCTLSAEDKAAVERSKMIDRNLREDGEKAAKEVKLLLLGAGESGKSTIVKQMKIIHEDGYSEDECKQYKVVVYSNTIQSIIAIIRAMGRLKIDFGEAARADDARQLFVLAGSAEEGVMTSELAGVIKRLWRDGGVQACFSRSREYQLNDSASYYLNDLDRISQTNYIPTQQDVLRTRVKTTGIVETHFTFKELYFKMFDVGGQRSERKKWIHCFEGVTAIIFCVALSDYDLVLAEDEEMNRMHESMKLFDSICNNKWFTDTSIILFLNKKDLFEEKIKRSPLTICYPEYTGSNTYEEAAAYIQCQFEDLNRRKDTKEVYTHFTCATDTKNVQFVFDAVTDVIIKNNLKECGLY
Sa growth 42C second temp: further read-out of Sa growth 42C, marked with its call; relative growth, %; measured here: growth at 30 °C;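 optical density after 20 h as mean of two plates; 100% = untreated growth and lower means inhibition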
Active calls of the source: *.

For Cc1cc(C)n2nc(SCc3nc4ccc(Cl)cc4n3CCO)nc2n1 the results were HCMV NEC inh -19, Sa growth 42C 98 and Sa growth 42C second temp 92.
Screening O=C(CC1CCCCC1)OCn1nnc2ccccc2c1=O returned Sa growth 42C 85, GIV Gai3 FP 96 and Sa growth 42C second temp 64.
For CCC(C)NS(=O)(=O)c1cc2c3c(c1)CCN3C(=O)CC2 (stereo not given) the results were HCMV NEC inh -9 and GIV Gai3 FP 96.
For CC1C2CC(C/C2=N\NC(N)=S)C1(C)C (stereo not given) the results were HCMV NEC inh 3, Sa growth 42C 143, GIV Gai3 FP 100 and Sa growth 42C second temp 101.
`COC(=O)c1ccc(/C=N/NC(=O)CO)cc1` gave HCMV NEC inh -86, Sa growth 42C 113, GIV Gai3 FP 97 and Sa growth 42C second temp 122.
For CCOC(=O)c1nnn(-c2cccnc2)c1C the results were HCMV NEC inh -8, Sa growth 42C 107 and Sa growth 42C second temp 87.
For Cc1cccc(-n2c(Cc3ccccc3)nnc2SCc2nc(-c3cccs3)no2)c1 the results were HCMV NEC inh -8, Sa growth 42C 104, GIV Gai3 FP 105 and Sa growth 42C second temp 82.
Cc1ccc(NC(=O)CCNS(=O)(=O)c2ccc3[nH]c(=O)ccc3c2)cc1Cl was read as HCMV NEC inh 7, Sa growth 42C 103, GIV Gai3 FP 104 and Sa growth 42C second temp 107.
Screening CCOC(=O)C1=C(C)N=c2s/c(=C/c3ccc(OC(C)=O)cc3)c(=O)n2C1c1ccc(OC)c(OC)c1 (stereo not given) returned HCMV NEC inh -19 and GIV Gai3 FP 97.
For CC(C)CNC(=O)c1cc(-c2cccc(O)c2)on1 the results were HCMV NEC inh -24, Sa growth 42C 95, GIV Gai3 FP 94 and Sa growth 42C second temp 80.
c1cc2c(cc1-c1nnc(CC34CC5CC(CC(C5)C3)C4)o1)OCO2 was read as HCMV NEC inh 5, Sa growth 42C 98, GIV Gai3 FP 109 and Sa growth 42C second temp 97.
`O=S(=O)(c1ccccc1C(F)(F)F)N1CCNCC1` gave HCMV NEC inh 22, Sa growth 42C 97 and Sa growth 42C second temp 94.
CC(=O)Nc1cccc(F)c1/C(N)=N/OC(C)=O was read as HCMV NEC inh -27, Sa growth 42C 95, GIV Gai3 FP 110 and Sa growth 42C second temp 91.
CCCCn1c(/N=C/c2nc3ccccc3n2C)nc2ccccc21 was read as HCMV NEC inh 11, Sa growth 42C 114, GIV Gai3 FP 105 and Sa growth 42C second temp 111.
`Cc1cc(NC(=O)CC(C)C)c(=O)n(Cc2ccccc2F)c1` gave HCMV NEC inh 0, Sa growth 42C 97, GIV Gai3 FP 115 and Sa growth 42C second temp 93.

Structural class: those above with an aryl thioether with sulfur outside any ring
For Cc1cc(C)n2nc(SCc3nc4ccc(Cl)cc4n3CCO)nc2n1 the results were HCMV NEC inh -19, Sa growth 42C 98 and Sa growth 42C second temp 92.
For Cc1cccc(-n2c(Cc3ccccc3)nnc2SCc2nc(-c3cccs3)no2)c1 the results were HCMV NEC inh -8, Sa growth 42C 104, GIV Gai3 FP 105 and Sa growth 42C second temp 82.

Following part
Screening NC(=O)C1CC(=O)N(c2ccccc2)C1 (stereo not given) returned HCMV NEC inh -15, Sa growth 42C 75, GIV Gai3 FP 102 and Sa growth 42C second temp 71.
For CN(C)c1ccc(C2ON2C2CCC(O)CC2)cc1 (stereo not given) the results were HCMV NEC inh -24, Sa growth 42C 89 and Sa growth 42C second temp 100.
`O=C(O)CCCCc1nc2ccccc2[nH]1` gave HCMV NEC inh -8, Sa growth 42C 98, GIV Gai3 FP 98 and Sa growth 42C second temp 87.
`O=C(c1cccc(F)c1)N1CCN(C(=O)c2cccc3ccccc23)CC1` gave HCMV NEC inh -13, Sa growth 42C 125, GIV Gai3 FP 104 and Sa growth 42C second temp 81.
For CC1CCCCN1C(=O)c1ccccc1NS(=O)(=O)c1ccc(F)cc1 (stereo not given) the results were HCMV NEC inh -11, Sa growth 42C 101, GIV Gai3 FP 96 and Sa growth 42C second temp 77.
Screening O=C1ON=C2C3CC4CC12CC1(C3)C(=O)ON=C41 returned HCMV NEC inh -4, Sa growth 42C 99, GIV Gai3 FP 92 and Sa growth 42C second temp 74.
For C#CC(CC)(CC)NC(=O)c1oc2ccccc2c1CSc1nc(C)cs1 the results were HCMV NEC inh -8, Sa growth 42C 95 and Sa growth 42C second temp 99.
Screening CNC(=O)CSc1cn(CC(=O)N2CCC(C)CC2)c2ccccc12 returned Sa growth 42C 100, GIV Gai3 FP 102 and Sa growth 42C second temp 92.
CC(C)c1ccc(S(=O)(=O)N2CCc3nc(N4CCCCC4)ncc3C2)cc1 was read as HCMV NEC inh -11 and GIV Gai3 FP 110.
For O=C(c1cnc2sccn2c1=O)N1CCCc2ccccc21 the results were HCMV NEC inh -34, Sa growth 42C 86, GIV Gai3 FP 98 and Sa growth 42C second temp 78.
`CCN1CCN(C(=O)c2ccc3c(c2)sc2nc(-c4ccc(C)cc4)cn23)CC1` gave HCMV NEC inh -9, Sa growth 42C 100, GIV Gai3 FP 97 and Sa growth 42C second temp 58.
`Cc1oc2ncn(CC(C)C)c(=O)c2c1C(=O)N(CCN(C)C)Cc1ccccc1` gave Sa growth 42C 105, GIV Gai3 FP 112 and Sa growth 42C second temp 89.
For COc1ccc(C)cc1NC(=O)CCNC(=O)Cn1ccc2ccccc2c1=O the results were HCMV NEC inh 8, Sa growth 42C 101, GIV Gai3 FP 104 and Sa growth 42C second temp 95.
`Cc1cc(C)nc(NS(=O)(=O)c2ccc(Nc3cc(Cl)c4nonc4c3[N+](=O)[O-])cc2)n1` gave HCMV NEC inh -88 and GIV Gai3 FP 101.
CCOC(=O)/C=C1\SCC(=O)N1CCOC(=O)c1ccccc1SC was read as HCMV NEC inh -3, Sa growth 42C 98 and Sa growth 42C second temp 90.

Among those listed so far, two contain an NH in an aromatic ring:
Cc1ccc(NC(=O)CCNS(=O)(=O)c2ccc3[nH]c(=O)ccc3c2)cc1Cl was read as HCMV NEC inh 7, Sa growth 42C 103, GIV Gai3 FP 104 and Sa growth 42C second temp 107.
`O=C(O)CCCCc1nc2ccccc2[nH]1` gave HCMV NEC inh -8, Sa growth 42C 98, GIV Gai3 FP 98 and Sa growth 42C second temp 87.

Next results follow:
For O=C(Nc1cccc2cccnc12)C1CC(=O)N(C2CCCC2)C1 (stereo not given) the results were HCMV NEC inh -32, Sa growth 42C 112 and Sa growth 42C second temp 74.
`COc1ccc(CNc2ccc3nc4ccc(C)cc4c(=O)n3n2)cc1` gave HCMV NEC inh -38, Sa growth 42C 101, GIV Gai3 FP 94 and Sa growth 42C second temp 91.
Screening CCOC(=O)c1c(CN2CCN(c3ccccc3C)CC2)n(-c2ccccc2)c2cc(Br)c(OC(C)=O)cc12 returned HCMV NEC inh 5 and GIV Gai3 FP 104.
CCC1CC(CN=CC2=C(O)CC(C)(C)CC2=O)C1(C)C (stereo not given) was read as HCMV NEC inh -8, Sa growth 42C 94 and Sa growth 42C second temp 84.
Screening CN(Cc1ccccc1)C(=O)COC(=O)c1ccc(I)cc1 returned HCMV NEC inh -2, Sa growth 42C 134 and Sa growth 42C second temp 93.
Screening CCCC1=NN2C(=N)/C(=C/c3ccc(OCCOc4ccccc4)cc3)C(=O)N=C2S1 returned Sa growth 42C 108, GIV Gai3 FP 102 and Sa growth 42C second temp 79.
For O=C(Nc1ccc(F)cc1)C1CCCN1S(=O)(=O)c1cccc2cccnc12 (stereo not given) the results were HCMV NEC inh -17 and GIV Gai3 FP 98.
`Nc1ccccc1-c1ccccc1N` gave HCMV NEC inh -23, Sa growth 42C 111 and Sa growth 42C second temp 86.
`O=C1COc2ccc(S(=O)(=O)N3CCN(C(=O)c4ccccn4)CC3)cc2N1` gave HCMV NEC inh -15 and GIV Gai3 FP 107.
Cc1ccc(C)c(N2CCN(C(=O)CCc3nnc4n(CC(C)C)c(=O)c5ccccc5n34)CC2)c1 was read as HCMV NEC inh -7, Sa growth 42C 108, GIV Gai3 FP 105 and Sa growth 42C second temp 87.
`COc1ccc2cc(C(C)C(=O)Nc3cc(Cl)cc(Cl)c3)ccc2c1` (stereo not given) gave HCMV NEC inh -1, Sa growth 42C 76, GIV Gai3 FP 100 and Sa growth 42C second temp 106.
Screening Nc1cc(N)nc(SCC(=O)NC(=O)NC2CCCC2)n1 returned HCMV NEC inh 7, Sa growth 42C 101 and Sa growth 42C second temp 94.
For O=C(CCC(=O)N1CCOc2ccc(Cl)cc21)N1CCN(c2ccccn2)CC1 the results were HCMV NEC inh -10 and GIV Gai3 FP 101.
`COc1cccc(NC(=O)Nc2nnc(N3CC(C)CC(C)C3)s2)c1` (stereo not given) gave HCMV NEC inh -2, Sa growth 42C 107, GIV Gai3 FP 104 and Sa growth 42C second temp 97.
COc1ccc(CCNC(=O)CN2C3CCCC2CC(=O)NC3)cc1OC (stereo not given) was read as HCMV NEC inh -4, Sa growth 42C 111, GIV Gai3 FP 106 and Sa growth 42C second temp 85.

Two compounds drawn at random from those above, as already listed:
For CN(C)c1ccc(C2ON2C2CCC(O)CC2)cc1 (stereo not given) the results were HCMV NEC inh -24, Sa growth 42C 89 and Sa growth 42C second temp 100.
For O=C(CCC(=O)N1CCOc2ccc(Cl)cc21)N1CCN(c2ccccn2)CC1 the results were HCMV NEC inh -10 and GIV Gai3 FP 101.

The list continues.
For Cc1ccccc1OC(C)C(=O)N1CCCc2ccccc21 (stereo not given) the results were HCMV NEC inh 2, Sa growth 42C 93, GIV Gai3 FP 105 and Sa growth 42C second temp 105.
Screening Cc1c(C(=O)NCCC2=CCCCC2)sc2nc3n(c(=O)c12)CCCCC3 returned HCMV NEC inh 3 and GIV Gai3 FP 105.
For COc1ccc(-c2nc(SCC(=O)Nc3cccc(C)c3)c3c(=O)n(C)c(=O)n(C)c3n2)cc1 the results were HCMV NEC inh 1, Sa growth 42C 93, GIV Gai3 FP 100 and Sa growth 42C second temp 109.
Screening Cc1cc(=O)n2[nH]c(CN(c3ccccc3)S(=O)(=O)c3ccccc3)nc2n1 returned HCMV NEC inh -2 and GIV Gai3 FP 103.
`Cn1c(=O)c2c(n(C)c1=O)=NC1(CCCCC1)N=2` gave HCMV NEC inh -82, Sa growth 42C 94, GIV Gai3 FP 109 and Sa growth 42C second temp 98.
Screening COC(=O)C1=NNC2(C)C(=O)N(c3ccccc3)C(=O)C12 (stereo not given) returned HCMV NEC inh -1, Sa growth 42C 88 and Sa growth 42C second temp 103.
Cc1oc(-c2ccccc2)nc1CSc1nc2ncccc2[nH]1 was read as HCMV NEC inh -32, Sa growth 42C 91, GIV Gai3 FP 104 and Sa growth 42C second temp 79.
For CCCCOc1ccc(C(=O)NCCc2csc(-c3ccc(OC)cc3)n2)cc1 the results were Sa growth 42C 115, GIV Gai3 FP 96 and Sa growth 42C second temp 103.
Cc1ccc2[nH]cc(C(O)CN3CCC(Cc4ccccc4)CC3)c2c1 (stereo not given) was read as HCMV NEC inh -14 and GIV Gai3 FP 108.
Screening CCOc1ccc(OCC)c(NS(=O)(=O)c2ccc(-c3coc(C)n3)cc2)c1 returned Sa growth 42C 116, GIV Gai3 FP 108 and Sa growth 42C second temp 92.
O=C(N1CCCC1)C1(S(=O)(=O)c2ccc(Cl)cc2)CC1 was read as HCMV NEC inh -7, Sa growth 42C 116, GIV Gai3 FP 107 and Sa growth 42C second temp 87.
Cc1cccc(CN2CCC(CNC(=O)c3cc4c(=O)oc5ccc(C)cc5c4s3)CC2)c1 was read as HCMV NEC inh -37 and GIV Gai3 FP 97.
`O=C(Nc1nccs1)c1cccc(S(=O)(=O)N2CCc3ccccc32)c1` gave HCMV NEC inh -30, Sa growth 42C 68 and Sa growth 42C second temp 56.
For Cc1ccc2c(c1)C(c1ccccc1)CC(C)N2S(=O)(=O)c1cccc(Cl)c1 (stereo not given) the results were Sa growth 42C 116, GIV Gai3 FP 97 and Sa growth 42C second temp 96.
CCN(CC)S(=O)(=O)c1ccc2c(c1)N(CC(=O)NCCc1ccc(OC)c(OC)c1)C(=O)CO2 was read as Sa growth 42C 119, GIV Gai3 FP 102 and Sa growth 42C second temp 89.
Screening O=c1cc(CN(CCO)CCO)nc2nc(-c3ccc(Cl)cc3)[nH]n12 returned HCMV NEC inh -26 and GIV Gai3 FP 101.
`Cc1ccc(F)c(NC(=O)C2CCCCC2C(=O)O)c1` (stereo not given) gave HCMV NEC inh -10, Sa growth 42C 118, GIV Gai3 FP 102 and Sa growth 42C second temp 115.
For CCOc1cc(/C=N/n2c(C)csc2=NC(C)C)ccc1O the results were HCMV NEC inh -28, Sa growth 42C 70 and Sa growth 42C second temp 75.
Screening Cc1oc2ncnc(N3CCCC(C(=O)NCc4cccc(Cl)c4)C3)c2c1C (stereo not given) returned HCMV NEC inh -27 and GIV Gai3 FP 102.
For O=C(C1=Cc2ccccc2OC1)N1CCOCC1 the results were HCMV NEC inh -28 and GIV Gai3 FP 101.
Screening CCn1nc(C)c(CCN(C)C(=O)Nc2ccccc2F)c1C returned HCMV NEC inh -23 and GIV Gai3 FP 103.
Screening CCc1ccc2oc(C(=O)NCc3ccccc3)cc(=O)c2c1 returned HCMV NEC inh -16, Sa growth 42C 100, GIV Gai3 FP 102 and Sa growth 42C second temp 89.
CCOc1ccccc1C1C(C(=O)OC)=C(N)OC2=C1C(=O)CC(C)(C)C2 (stereo not given) was read as HCMV NEC inh -6 and GIV Gai3 FP 105.
`CCc1[nH]n2c(=O)cc(C)nc2c1-c1ccccc1` gave HCMV NEC inh -19 and GIV Gai3 FP 128.

Screens from PubChem BioAssay.
